# Screening data (PubChem)
# GIV-Gai inh: inhibitors of GIV peptide binding to Galpha-i3, primary screen, biochemical, fluorescence polarization, FITC-GIV GBA peptide, rat Galphai3; Guanine nucleotide-binding protein G(i) subunit alpha-3 (Rattus norvegicus), P08753; 90 min; stronger effect = lower value; scaled: aluminum fluoride 0%, vehicle 100%; percent of control (FP), % (test concentration not listed); 210,000 compounds, 0.42% hits; AID 1224905, 2016;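 active = replicate mean at 85% of control or lower, very high polarization wells dropped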;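 also: wells of about 15 µL received 100 nL stock; the first replicate is given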
# Target sequence (P08753 whole entry, looked up): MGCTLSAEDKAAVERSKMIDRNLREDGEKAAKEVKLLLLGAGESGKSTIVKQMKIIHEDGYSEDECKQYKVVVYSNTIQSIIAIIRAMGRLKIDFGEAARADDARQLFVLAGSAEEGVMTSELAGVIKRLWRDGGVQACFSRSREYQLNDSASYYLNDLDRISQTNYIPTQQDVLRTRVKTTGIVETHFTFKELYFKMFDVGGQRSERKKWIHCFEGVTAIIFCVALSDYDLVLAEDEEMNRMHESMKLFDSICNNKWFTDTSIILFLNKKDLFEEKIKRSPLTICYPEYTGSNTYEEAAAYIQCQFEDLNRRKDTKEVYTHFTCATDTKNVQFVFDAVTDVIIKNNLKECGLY
# Sa growth 42C: S. aureus growth inhibition at 42 and 30 °C, primary screen, LtaS inhibitor project, RN4220, two temperatures. OD600, 20 h, 42 °C; stronger effect = lower value. 170,000 compounds, 0.53% hits. relative growth, % (concentration not given with the values). AID 720641, 2013;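 active = growth at 42 °C up to 50% and 20 or more points under that at 30 °C, or under 10% at both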;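 also: 300 nL library stock went into each well; scaled to the means of positive and negative controls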
# HCMV UL50-53 inh: inhibitors of HCMV UL50-UL53 interaction, biochemical, HTRF; normalized percent inhibition; 190,000 compounds, 0.15% hits; inhibition, % (test concentration not listed); HCMV UL50-UL53 nuclear egress complex (human cytomegalovirus);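 active = both replicates at 50% or more, plus weaker picks with an unusually low signal ratio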;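 also: stock transfer was 100 nL into about 20 µL; 0% = negative control wells and 100% = wells with untagged competitor protein; inactives centre near -12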
# Sa growth 42C second temp: further read-out of Sa growth 42C, marked with its call; relative growth, %; measured here: growth at 30 °C;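 optical density after 20 h as mean of two plates; 100% = untreated growth and lower means inhibition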
# An asterisk follows results filed as active; . = no result given; & = joins results of further samples.
SMILES,GIV-Gai inh,Sa growth 42C,Sa growth 42C second temp,HCMV UL50-53 inh
Cc1ccc(NC(=O)Cn2cnc3c(oc4ccccc43)c2=O)cc1,107,126,98,.
CC(C)Nc1nc(Cl)nc(NCCO)n1,105,85,91,5
c1ccc(CC2=NNC(Cc3ccccc3)=NN2)cc1,103,94,92,-20
CCOC(=O)Cc1ccc(NC(=O)Nc2cc3c(cc2N2CCCCC2)n(C)c(=O)n3C)cc1,102,107,86,-14
O=C1N/C(=C/c2ccsc2)C(=O)N1c1ccccc1,111,103,99,-18
COc1cccc(N2CC(NC(=O)c3cc(Cl)ccc3OC)CC2=O)c1 (stereo unspecified),97,123,85,.
CCN(Cc1ccc2c(c1)OCCO2)C(=O)c1ccc(=O)n(Cc2ccccc2)n1,.,93,97,-23
CCS(=O)(=O)Nc1cccc(C(=O)CC2(O)C(=O)Nc3ccccc32)c1 (stereo unspecified),101,115,90,.
COc1ccc(CNC(=O)c2ccc(S(=O)(=O)c3ccc(C)c(C)c3)nc2)c(OC)c1,95,.,.,-24
O=C(Nc1nc2ccccc2[nH]1)C1CC(=O)N(Cc2ccccc2)C1 (stereo unspecified),.,98,91,-13
CCCN1C(=O)c2c(C(=O)NCCN3CCOCC3)ncn2CC1(C)C(=O)NCCC(C)C (stereo unspecified),109,.,.,-14
CCOc1ccc(/C=C/c2nc(C#N)c(NC(C)c3ccccc3)o2)cc1 (stereo unspecified),96,106,84,-41
Cc1nc(Oc2ccc(F)cc2Cl)c2oc3ccccc3c2n1,101,71,69,.
O=c1[nH]c(Nc2nc3ccccc3o2)nc2c1CCCC2,99,116,107,-6
COc1ccc(OCC(=O)N2c3ccccc3C(N(C(=O)COc3ccc(OC)cc3)c3ccccc3)CC2C)cc1 (stereo unspecified),101,.,.,12
OC1CCN(c2cc(-c3ccccc3)nc3cc(-c4cccc(Cl)c4)nn23)CC1,104,95,82,-7
COC(=O)c1cc(S(=O)(=O)NC(C)(C)C)cn1C,103,103,93,.
Cc1nnsc1-c1nnc(SCC(=O)c2ccc(F)cc2)n1C1CC1,101,78,80,-21
Cc1ccc(N2CC(c3nc(-c4cccc(NC(=O)NC(C)C)c4)no3)CC2=O)cc1C (stereo unspecified),103,.,.,-17
O=S1(=O)CC2SC(=S)N(c3cccc(O)c3)C2C1 (stereo unspecified),101,112,97,11

# Quoted from the entries so far (14 entries):
SMILES,GIV-Gai inh,Sa growth 42C,Sa growth 42C second temp,HCMV UL50-53 inh
Cc1ccc(NC(=O)Cn2cnc3c(oc4ccccc43)c2=O)cc1,107,126,98,.
CC(C)Nc1nc(Cl)nc(NCCO)n1,105,85,91,5
c1ccc(CC2=NNC(Cc3ccccc3)=NN2)cc1,103,94,92,-20
CCOC(=O)Cc1ccc(NC(=O)Nc2cc3c(cc2N2CCCCC2)n(C)c(=O)n3C)cc1,102,107,86,-14
O=C1N/C(=C/c2ccsc2)C(=O)N1c1ccccc1,111,103,99,-18
COc1cccc(N2CC(NC(=O)c3cc(Cl)ccc3OC)CC2=O)c1 (stereo unspecified),97,123,85,.
CCN(Cc1ccc2c(c1)OCCO2)C(=O)c1ccc(=O)n(Cc2ccccc2)n1,.,93,97,-23
CCS(=O)(=O)Nc1cccc(C(=O)CC2(O)C(=O)Nc3ccccc32)c1 (stereo unspecified),101,115,90,.
COc1ccc(CNC(=O)c2ccc(S(=O)(=O)c3ccc(C)c(C)c3)nc2)c(OC)c1,95,.,.,-24
O=C(Nc1nc2ccccc2[nH]1)C1CC(=O)N(Cc2ccccc2)C1 (stereo unspecified),.,98,91,-13
CCCN1C(=O)c2c(C(=O)NCCN3CCOCC3)ncn2CC1(C)C(=O)NCCC(C)C (stereo unspecified),109,.,.,-14
CCOc1ccc(/C=C/c2nc(C#N)c(NC(C)c3ccccc3)o2)cc1 (stereo unspecified),96,106,84,-41
Cc1nc(Oc2ccc(F)cc2Cl)c2oc3ccccc3c2n1,101,71,69,.
O=c1[nH]c(Nc2nc3ccccc3o2)nc2c1CCCC2,99,116,107,-6

# (next part)
SMILES,GIV-Gai inh,Sa growth 42C,Sa growth 42C second temp,HCMV UL50-53 inh
CNC(=O)C1CCC(Cn2c(=O)c3sccc3n(CC(=O)NC3CCCCC3)c2=O)CC1 (stereo unspecified),105,.,.,1
N#Cc1c(N)ccn(Cc2ccccc2)c1=O,99,105,82,-11
CCNC(=O)NC(=O)C(c1ccccc1)n1nc(C(=O)O)c2ccccc2c1=O (stereo unspecified),.,73,93,-20
COc1ccc(N2CCN(C(=O)c3ccc(CS(=O)c4ccccc4)o3)CC2)cc1 (stereo unspecified),103,115,98,-2
Cc1ccc(CNc2nc3nc(C)cc(C)n3n2)cc1,98,.,.,-6
Cc1nc2cc(C(=O)O)ccc2n1-c1ccc(F)c(F)c1,103,94,105,3
NNC(=O)c1ccc(Oc2cc(Cl)cc(Cl)c2)o1,101,87,81,-7
CCSc1nnc(NC(=O)CCC(=O)OC2CCC(C)C(C)C2)s1 (stereo unspecified),112,79,89,.
CCn1c(=O)c2sccc2n2c(CCC(=O)N3CCN(c4ccc(C(C)=O)cc4)CC3)nnc12,101,83,89,-5
O=C(Nc1nccs1)C1CCN(C(=O)c2ccc(Cl)cc2)CC1,.,94,90,5
CCOc1ccc(C2c3[nH]c4ccccc4c3CCN2C(=O)CCC2CCCC2)cc1 (stereo unspecified),102,98,102,.
CS(=O)(=O)NCc1cccc2ccccc12,.,118,77,-6
CC(C)CC1N=C2c3ccccc3N=C(SC(C)C(=O)Nc3ccccc3)N2C1=O (stereo unspecified),102,.,.,2
COc1ccc(-c2nc3ccccc3c(=O)n2NC(=O)/C=C/c2ccc(Cl)cc2)cc1OC,112,.,.,-6
COc1ccc(/C=C/C(=O)Nc2cc(C)nc3ccccc23)cc1OC,.,93,71,-61
Cn1c(SCc2ccoc2C(=O)O)nnc1-c1ccccc1,.,104,92,-18
Cc1ccc(C(=O)Nc2ccc(SCc3cc(=O)n4c(ncn4C(C)C)n3)cc2)cc1F,99,.,.,-26
C=CCn1c(-c2cccc(C)c2)nc2ccccc21,101,82,67,.
Cc1ccsc1C(=O)OCC(=O)Nc1sccc1C#N,.,101,87,-26
COc1ccccc1C(=O)N1c2ccccc2C(C)(c2ccc(Cl)cc2)CC1(C)C (stereo unspecified),106,73,67,-36
CC1=Nc2nc(N3CC(C)OC(C)C3)c(C#N)c3c4c(nc(c23)N1)N(c1ccccc1)C(=O)C4 (stereo unspecified),.,84,86,-75
CCC(C(=O)NCc1ccccc1)n1nc(C)c2sc3ccccc3c2c1=O (stereo unspecified),105,102,100,7
O=C(CSc1oc(-c2ccco2)nc1S(=O)(=O)c1ccc(Cl)cc1)Nc1ccc(F)cc1,104,94,92,3
COc1cc(/C=N/NC(=S)NCC2CCCO2)ccc1OC(=O)c1ccco1 (stereo unspecified),.,74,91,-22
CCOC(=O)c1cnc(Sc2ccc(Cl)cc2)nc1C(F)(F)F,108,88,100,-11
CC1Cc2ccccc2N1C(=O)CN1C(=O)C(C)(C)c2cc(S(=O)(=O)N3CCCC3)ccc21 (stereo unspecified),103,.,.,-31
O=C(CN1C(=O)CCc2cc(S(=O)(=O)N3CCCCC3)ccc21)N1CCCCC1,104,.,.,-16
COc1nc(NC(C)(C)C)nc(Oc2ccc(=O)n(C)n2)n1,102,101,97,.
CCc1ccccc1NC(=O)C1CCCN(C(=O)c2cnn(-c3ccccc3)c2-n2cccc2)C1 (stereo unspecified),103,98,75,-30
CCn1c(=O)sc2cc(NC(=O)c3cccc(OC)c3)ccc21,108,112,78,-13
COc1ccc(-c2nc3sc(CCNC(=O)C(=O)Nc4cc(C)cc(C)c4)c(C)n3n2)cc1,97,95,93,.
COC(=O)c1ccc(N2C(=O)Cc3cc(OC)c(OC)cc3C2c2ccc(F)cc2)cc1 (stereo unspecified),103,105,81,-19
CCOC(=O)/C(C#N)=C\c1ccc(N2CCOCC2)cc1,-45*,92,88,-50
C=C(C)Cn1c(-c2ccccc2)nc2ccccc21,99,106,77,.
Cc1ccc(CNC(=O)N2CCC(n3c(C)nc4cc(C(=O)N5CCCC5)ccc43)CC2)cc1,103,.,.,-15
Cc1ccc(Cn2c(=O)c(N3CCCC(C(=O)NCc4ccccc4Cl)C3)nc3ccccc32)cc1 (stereo unspecified),106,.,.,-2
O=C(CSc1ncc(CO)n1Cc1ccc(Cl)cc1)Nc1ccc2c(c1)OCCO2,100,103,78,-22
CC(=O)Nc1ccc(C2SCCS2)cc1,106,95,81,-11
C=C(C)CC1C=CCC(CC(=C)C)N1 (stereo unspecified),98,66,91,2
CCN(CC)C(=O)c1ccc2c(=O)n(Cc3ccccc3)c(SCC(=O)C(C)(C)C)nc2c1,106,107,94,2
Oc1cc2c(cc1C(c1ccc(C(F)(F)F)cc1)N1CCN(c3ccccc3)CC1)OCO2 (stereo unspecified),.,-0.7*,26*,-15
Cc1ccc2nc(SC(C)C(=O)c3c(N)n(C)c(=O)n(C)c3=O)[nH]c2c1 (stereo unspecified),.,100,78,-15
CCc1nnc2c(NCc3ccc(F)cc3)nc3ccccc3n12,115,92,89,-2
Cc1[nH]c(=S)[nH]c(=O)c1Oc1ccccc1,99,100,98,1
Cc1ccc2ccc(C3C(=O)c4cccnc4C3=O)nc2c1 (stereo unspecified),104,119,92,-26
CCc1ccccc1NS(=O)(=O)c1ccc(NC(=O)N2CCCC2)cc1,102,124,89,.
O=C(O)CN1C(=O)S/C(=C\c2ccccc2)C1=O,94,89,85,-112
Sc1cccc2cccnc12,.,78,87,6
CNc1nnc(-c2ccccc2)s1,104,118,100,-30
CCN1C(=O)C(Cc2nc3ccccc3c(=O)n2C)c2cc(C)ccc21 (stereo unspecified),104,86,85,.
CCn1nc(C)c(Br)c1-c1nc(-c2ccccc2)no1,112,92,97,-17
O=C1Nc2ccccc2OC1CC(=O)N1CCN(Cc2ccc3c(c2)OCO3)CC1 (stereo unspecified),104,101,80,-11
O=C(CN1C(=O)CCC1=O)NC(=S)Nc1cccc(-c2nc3ccccc3o2)c1,98,93,84,-46
Cc1cc(NC(=O)C2CC(=O)N(c3ccccc3C)C2)no1 (stereo unspecified),104,90,82,-22
CCC(=O)N1c2ccccc2NC2=C(C(=O)CC(c3ccccc3)C2)C1c1ccccc1 (stereo unspecified),104&95,108,81,-13
CCCCN[C@H]1CS(=O)(=O)C[C@@H]1S(=O)(=O)c1cccs1,96,.,.,-2
CCOc1ccc(Sc2cc(C(=O)NCCCOC)c3ccccc3n2)cc1,99,124,87,.
CCOC(=O)c1c(NC(=O)c2ccn(CC)n2)sc2c1CCC2,98,112,78,.
Cc1cccc(NC(=O)c2cc3sccc3n2C)c1C,107,99,90,.
COc1ccc(CCNC(=O)c2ccc(Cn3c(=O)c4ccccc4n(Cc4cc(C)ccc4C)c3=O)cc2)cc1OC,104,112,94,-1

# New compounds follow.
SMILES,GIV-Gai inh,Sa growth 42C,Sa growth 42C second temp,HCMV UL50-53 inh
COc1cc(OC)nc(NCC(NC(=O)c2ccccc2)C(N)=O)n1 (stereo unspecified),106,105,88,-14
Cc1cc(NC(=O)c2ccc3c(c2)C(=O)N(Cc2ccccc2)C3=O)no1,102,87,72,-23
Cc1c(C(=O)N2CCC(c3nc4ccccc4s3)CC2)oc2ccc(Cl)cc12,104,92,82,-28
CS(=O)(=O)N(CC(N)=O)C1CCCCC1,107,112,96,-8
Cc1cccc(OC(=O)c2cc(-c3ccc(C)c(C)c3)on2)c1,103,0.8*,0.7*,-4
COc1ccc(-n2nc3c(N4CCCC(C(=O)NCCc5ccc(C)cc5)C4)nnc(C)c3c2C)cc1 (stereo unspecified),108,82,90,.
Cc1cc(C)n(C(=O)c2sccc2S(=O)(=O)N(C)c2ccc(C)c(F)c2)n1,108,.,.,4
COC(=O)c1ccc(COC(=O)c2cc(-c3ccco3)nc3ccccc23)cc1,.,71,38,-27
CC(=O)N1CCc2cc(Br)cc(S(=O)(=O)NCCc3ccc(Cl)cc3)c21,106,125,79,-19
COC(=O)C1=C(C)NC(C)=C(C(=O)OC)C1c1cn(-c2ccccc2)nc1-c1ccco1,99,96,104,-3
COc1cc(CN(C(=O)c2ccc(C)cc2)c2ccccn2)cc(OC)c1OC,103,102,85,-21
O=C(Nc1cc(Cl)cc(Cl)c1)c1ccc(F)c(S(=O)(=O)N2CCCC2)c1,99,89,86,.
O=C(NCc1ccc2c(c1)OCO2)C1CCN(c2ncccn2)CC1,104,74,99,10
CCc1ccc(-n2c(=O)c3c(C)c(C(=O)N(C)C)sc3n(Cc3ccccc3F)c2=O)cc1,100,96,89,.
CN(CCCNC(=O)C1CCCN1c1nnc(N2CCCC2=O)s1)C1CCCCC1 (stereo unspecified),99,.,.,-17
CC(C)COc1ccc(C(=O)NCC2(N3CCN(C)CC3)CCCCC2)cc1,99,107,80,-18
N#Cc1c(Nc2ccccc2)c(C=NCCN2CCOCC2)c[nH]c1=O,103,84,84,.
Cc1ccc(-c2noc(CNC(=O)C(c3ccccc3)c3ccccc3)n2)cc1,109,113,103,.
CC(=O)N1/C(=C/c2ccc(N(C)C)cc2)C(=O)c2ccccc21,141,80,52,.
CCN1c2ccccc2-c2nc(SCC(=O)NCc3ccc(C)cc3)ncc2S1(=O)=O,101,109,88,.
S=C1NCCc2ccccc21,104,96,94,-39
